Marburg entry inh – Marburg virus entry inhibition; 300,000 tested, 1.8% active; Marburg virus pseudotyped entry inhibition, cell reporter; control for the full effect not named in the record; about a third of the inactives were read at about 46 µM; Potency, µM (top dose mostly 37.8 µM), for inactives: at the top dose activity change, negative = inhibition, most hits filed as inhibitors; AID 540276; active = well fitted inhibition curve with a large enough effect; inconclusive = small, poorly fitted or top-dose-only effect, or effect the other way; inactive = flat fitted curve, though single readings scatter; tested in HEK293 cells; about a fifth of its hits are not listed in these tables; further: on the % scale 0 is the no-effect control and ±100 the full control effect; luciferase read-out
Lassa entry inh – Lassa virus entry inhibition; Lassa virus pseudotype entry inhibition, cell reporter; control for the full effect not named in the record; Potency, µM (titrated, usually from 37.9 µM), inactives show top-dose activity change, negative = inhibition, usual class: inhibitors; 300,000 tested, 1.2% active; AID 540256; active means well fitted inhibition curve with a large enough effect; inconclusive means small, poorly fitted or top-dose-only effect, or effect the other way; inactive means flat fitted curve, though single readings scatter; tested in HEK293 cells; further: on the % scale 0 is the no-effect control and ±100 the full control effect; nearly all actives have a fitted effect of over 50% in size; luciferase read-out
Cruzain noTriton – blocks cruzain activity in detergent-free assay; purified cruzain, Z-FR-AMC fluorescence, no detergent; Potency, µM, inactives show max response, negative = inhibition, most hits filed as inhibitors; 200,000 tested, 2.3% active; AID 1476;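 further: plate controls were enzyme without inhibitor for no effect and buffer without enzyme for full effect; nearly all actives have a fitted effect of over 40% in size; top concentration of the series not given in the record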
Target sequence (P25779 123-467 limits assumed): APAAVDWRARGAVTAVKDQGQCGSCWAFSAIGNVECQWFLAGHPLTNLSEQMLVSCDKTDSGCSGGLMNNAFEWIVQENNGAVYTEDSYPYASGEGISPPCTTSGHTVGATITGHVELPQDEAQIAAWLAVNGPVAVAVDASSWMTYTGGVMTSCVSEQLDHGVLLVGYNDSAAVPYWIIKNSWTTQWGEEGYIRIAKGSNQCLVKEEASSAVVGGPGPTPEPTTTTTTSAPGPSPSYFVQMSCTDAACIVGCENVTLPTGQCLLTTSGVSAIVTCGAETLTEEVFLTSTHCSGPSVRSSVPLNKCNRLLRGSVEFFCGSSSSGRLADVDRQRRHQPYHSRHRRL
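Purified cruzain at 1.5 nM, pre-incubated 15 min with compound at room temperature in 100 mM sodium acetate pH 5.5, 5 mM DTT, 0.00005% Triton X-100. Reaction started with 2 uM Z-FR-AMC; AMC fluorescence increase over 60 s gives rate.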
Cruzain inh Det – blocks cruzain activity in presence of Triton detergent | P25779 | purified cruzain, Z-FR-AMC fluorescence, 0.01% Triton | Potency, µM, inactives show max response, negative = inhibition, hits mostly inhibitors | 200,000 tested, 0.43% active | AID 1478;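 further: plate controls were neutral wells for no effect and buffer without enzyme for full effect; nearly all actives have a fitted effect of over 40% in size; top concentration of the series not given in the record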
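Compounds were screened in titration against cruzain (1.5 nM) with 0.01% Triton X-100 to counter colloidal aggregation. Activity was the AMC fluorescence increase over 60 s after adding 2 uM Z-FR-AMC at pH 5.5.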
NS1 inh – blocks influenza NS1 protein function | Potency, µM (highest dose often 46.1 µM), for inactives: at the highest dose activity, positive = more growth | S. cerevisiae slowed by influenza A NS1, growth recovery by OD600 | 270,000 tested, 0.4% active; active means well fitted rising curve with a large enough effect; inconclusive means small, poorly fitted or top-dose-only effect; inactive means no such curve, though single readings can be large or run the other way; further: nearly all actives have a fitted effect of over 50% in size
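Growth recovery, yeast-based: influenza A NS1 expressed in S. cerevisiae causes slow growth, and suppressors are detected by OD600. The parent strain without NS1 is used as positive control.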
Numbers without * were called inactive; ? = inconclusive; nt = not tested or not shown; & = joins results of further samples; [ ] = dose if it differs, or a comment. Unless noted, the call rests on the fitted dose curve; in most records, active means well fitted curve in the direction sought with a large enough effect; inconclusive means small, poorly fitted or top-dose-only effect, or another doubt; inactive means no such curve, though single readings can be large; an effect the other way counts as inactive or inconclusive. Potency means the concentration at half of the fitted maximal effect. Only part of the results is shown; rates above refer to the full screens.

| no. | SMILES | Marburg entry inh | Lassa entry inh | Cruzain noTriton | Cruzain inh Det | NS1 inh |
| --- | --- | --- | --- | --- | --- | --- |
| 1 | C/C(=N/O)C(=O)NCCCn1ccnc1 | 20%[46.1 µM] | nt | nt | nt | nt |
| 2 | Cc1ccc(S(=O)(=O)OC[C@@H]2CN3[C@H](c4ccc(Br)cc4)[C@H](C)CC[C@H]3C(=O)O2)cc1 | -12%&-12%[14.2 µM] | nt | nt | nt | nt |
| 3 | CC(C)OC(=O)[C@@H](CC(=O)O)NCc1ccccc1 | 0% | nt | nt | nt | nt |
| 4 | COc1cccc([C@H]2C(C(=O)c3sc(C)nc3C)=C(O)C(=O)N2CCN2CCOCC2)c1OC | 10% | nt | nt | nt | nt |
| 5 | O=C(C=Cc1ccccc1)Nc1cccc(C(=O)NCCCCc2ccccc2)c1 | ? | nt | nt | nt | nt |
| 6 | CCOC(=O)[C@@H]1CSCCS(=O)(=O)N1Cc1ccc(C(F)(F)F)cc1 | ? | nt | nt | nt | nt |
| 7 | CC1(C)CC(=O)C2=C(C1)O[C@@]1(CCCCN3C(=O)c4ccccc4C3=O)Cc3cc(C#N)ccc3[C@H]2O1 | ? | nt | nt | nt | nt |
| 8 | COc1ccc(CN(C2CCCC2)S(=O)(=O)c2cc(Br)ccc2Br)c(OC)c1 | ? | nt | nt | nt | nt |
| 9 | CCC(=O)CC(NC(=O)OC)c1ccc(F)cc1 (stereo not given) | 6%[14.2 µM] | nt | nt | nt | nt |
| 10 | C[C@]12C[C@@](C)(C=C1C=Cc1ccc(C(F)(F)F)cc1)C(=O)C[C@H]2c1ccc(C(F)(F)F)cc1 | ? | nt | nt | nt | nt |
| 11 | COc1ccc(N(CN2C(=O)[C@@H]3[C@@H](C2=O)[C@H]2C=C[C@@H]3C2)C(=O)c2ccco2)cc1 | 5% | nt | nt | nt | nt |
| 12 | O=C(N[C@H](c1ccccc1)C1CCCC=C1c1ccccc1)C(F)(F)F (stereo not given in full) | -24%[14.2 µM] | nt | nt | nt | nt |
| 13 | COC(=O)c1c(C)nc(C)c2c(=O)oc3c(c12)CCCC3 | 13% | nt | nt | nt | nt |
| 14 | C=C[C@H]1CCC=C2C(=O)CCC[C@H]21 | ? | nt | nt | nt | nt |
| 15 | O=C(NC(CC1=CCCCC1)c1ccc2ccccc2c1)C(F)(F)F (stereo not given) | -17%[14.2 µM] | nt | nt | nt | nt |
| 16 | CC(C)CNc1ccc2c(c1)OC[C@H](CC(C)C)NS2(=O)=O | ? | nt | nt | nt | nt |
| 17 | COc1ccc([C@H]2C[C@H](n3cc(C4CC4)nn3)[C@@H](O)CN2C(=O)c2cccs2)cc1 | ? | nt | nt | nt | nt |
| 18 | CCCCOc1nc2ccccc2nc1[C@H](C#N)C(=O)NC1CCCCC1 | 16% | nt | nt | nt | nt |
| 19 | CCCC[C@]1(C(=O)OCC)C[C@H](CN2CCOCC2)OC1=O | 5% | nt | nt | nt | nt |
| 20 | COc1ccc(-c2nc3c(c4c2C[C@H](c2ccccc2)OC4)CN(C(=O)N[C@@H](C)c2ccccc2)CC3)c(C)c1 | ? | nt | nt | nt | nt |
| 21 | O[C@H]1CN(CC2CCCCC2)[C@@H](c2ccccc2)C[C@H]1n1cc(-c2ccc(F)cc2)nn1 | ? | nt | nt | nt | nt |
| 22 | CC=Cc1cc2ccccc2c2c(C(=O)OC)c(C(=O)OC)c(C(=O)OC(C)(C)C)n12 | ? | nt | nt | nt | nt |
| 23 | C#CCCCO/N=C1/C[C@@H](O)[C@@H](O)[C@@H]2[C@@H]3C(=O)N(Cc4ccc5c(c4)OCO5)C(=O)[C@H]3CC[C@H]12 | ? | nt | nt | nt | nt |
| 24 | O=C(OCc1cn([C@H]2C[C@H](c3ccccc3)N(CC3CCCCC3)C[C@H]2O)nn1)c1ccccc1 | ? | nt | nt | nt | nt |
| 25 | CC1(C)CC(=O)C=C(NC2CCS(=O)(=O)C2)C1 (stereo not given) | 2% | nt | nt | nt | 5% |
| 26 | CC1CCN(Cc2nc3c(c(=O)n(C)c(=O)n3C)n2Cc2cccc3ccccc23)CC1 | 5% | nt | nt | nt | -18% |
| 27 | Cc1cc(C(=O)O)ccc1-n1c(C)ccc1C | -3% | nt | nt | nt | -48% |
| 28 | O=c1c2ccccc2cnn1-c1nc2ccccc2s1 | -4% | nt | nt | nt | 3% |
| 29 | Cc1ccc(/C(O)=C2\C(=O)C(=O)N(CCCN(C)C)C2c2ccccn2)cc1 (stereo not given) | -3% | nt | nt | nt | 16% |
| 30 | Cc1oc2cc3c(C(=O)OCCN(C)C)c(C)oc3cc2c1C(=O)OCCN(C)C | 0% | nt | nt | nt | 3% |
| 31 | CNC(=O)CSc1nnc(-c2cc3c(C)nn(-c4ccccc4)c3s2)n1C | -3% | nt | nt | nt | 2% |
| 32 | O=c1c2cnn(-c3ccccc3)c2ncn1/N=C/c1ccncc1 | 3% | nt | nt | nt | 7% |

Going on with the list.
item	canonical_smiles	Marburg entry inh	Lassa entry inh	Cruzain noTriton	Cruzain inh Det	NS1 inh
33	CC12CCC(C(=O)N3CCN(C(=O)C45CCC(C)(C(=O)O4)C5(C)C)CC3)(OC1=O)C2(C)C	0%	nt	nt	nt	10%
34	Cn1c(=N)c(S(=O)(=O)c2ccc(Cl)cc2)cc2c(=O)n3ccccc3nc21	0%	nt	nt	nt	7%
35	COc1ccccc1C1/C(=C(\O)c2c(C)nc3c(C)cccn23)C(=O)C(=O)N1CCCN(C)C (stereo not given)	-5%	nt	nt	nt	3%
36	Cn1c(=O)c2c(nc(N3CCCCC3)n2CCSc2nc3ccccc3o2)n(C)c1=O	1%	nt	nt	nt	7%
37	Brc1ccc(C2=Nn3c(nnc3-c3ccncc3)SC2)cc1	1%	nt	nt	nt	-4%
38	O=c1[nH]c(SCc2cc(=O)n3ccccc3n2)nc2c1CCC2	2%	nt	nt	nt	1%
39	Cc1nc(Nc2nc(=O)c3ccccc3n2C)nc2c(C)cccc12	1%	nt	nt	nt	10%
40	COc1cccc2cc(C(=O)C3=C(O)C(=O)N(CCCN4CCOCC4)C3c3ccncc3)oc12 (stereo not given)	-1%	nt	nt	nt	3%
41	COc1cccc(-n2c(SCC(=O)N3CCCC3)nc3c([nH]c4ccccc43)c2=O)c1	-3%	nt	nt	nt	-2%
42	CCCn1c(SCC(=O)Nc2ccccc2C(=O)OCC)nc2c1c(=O)n(C)c(=O)n2C	6%	nt	nt	nt	8%
43	Cc1ccc(C(=O)N2CCN(C(=O)c3ccc(C)c(C)c3)C(C)C2)cc1C (stereo not given)	3%	nt	nt	nt	1%
44	CCCn1c(=O)c2ccccc2n2c(SCc3cc(=O)n4ccsc4n3)nnc12	2%	nt	nt	nt	2%
45	CCCCS(=O)(=O)NC1=NCN(C2CCN(Cc3ccccc3)CC2)CN1	0%	nt	nt	nt	2%
46	CN1CCN(Cc2nc3c(c(=O)n(C)c(=O)n3C)n2Cc2ccccc2Cl)CC1	-5%	nt	nt	nt	-16%
47	CCC(C)NC(=O)CSc1nc2cc3c(cc2c(=O)n1Cc1ccc(C(=O)NCCc2ccc(OC)c(OC)c2)cc1)OCO3 (stereo not given)	nt	-14%[46.1 µM]	12%	2.2%	nt
48	COc1cccc([C@@H]2Oc3ccc(Br)cc3C(=O)[C@H]2O)c1	?	nt	-6%	-0.9%	nt
49	CN(C)CC[C@@H](c1ccccc1)c1ccccn1	-8%	nt	-2%	-0.1%	nt
50	COc1ccc(-c2nc(-c3ccccc3)c(NC(C)(C)C)o2)cc1	?	nt	3%&3%	4.4%&-4.8%	nt
51	C/C=C/C1=Cc2ccccc2C(C(C(=O)OC)C(=O)OC)N1C(=O)OC (stereo not given)	?	nt	4%	1.8%	nt
52	C/C(=C\CO)CCO	2%[14.2 µM]	nt	-9%	5.9%	nt

Reformatted with each value named: entries from further up.
[38] O=c1[nH]c(SCc2cc(=O)n3ccccc3n2)nc2c1CCC2
- Marburg entry inh: 2%
- Lassa entry inh: nt
- Cruzain noTriton: nt
- Cruzain inh Det: nt
- NS1 inh: 1%

[39] Cc1nc(Nc2nc(=O)c3ccccc3n2C)nc2c(C)cccc12
- Marburg entry inh: 1%
- Lassa entry inh: nt
- Cruzain noTriton: nt
- Cruzain inh Det: nt
- NS1 inh: 10%

[40] COc1cccc2cc(C(=O)C3=C(O)C(=O)N(CCCN4CCOCC4)C3c3ccncc3)oc12 (stereo not given)
- Marburg entry inh: -1%
- Lassa entry inh: nt
- Cruzain noTriton: nt
- Cruzain inh Det: nt
- NS1 inh: 3%

[41] COc1cccc(-n2c(SCC(=O)N3CCCC3)nc3c([nH]c4ccccc43)c2=O)c1
- Marburg entry inh: -3%
- Lassa entry inh: nt
- Cruzain noTriton: nt
- Cruzain inh Det: nt
- NS1 inh: -2%

The list continues.
item	canonical_smiles	Marburg entry inh	Lassa entry inh	Cruzain noTriton	Cruzain inh Det	NS1 inh
53	CC(C)(C)OC(=O)NCCCC1=CC2=CC(=O)C(C)(OC(=O)c3cccs3)C(=O)C2=CO1 (stereo not given)	-5%&-5%[14.2 µM]	nt	-15%	0.0%	nt
54	O=P1(O)Oc2c(c(-c3ccccc3)cc3ccccc23)-c2c(-c3ccccc3)cc3ccccc3c2O1	10%&10%[14.2 µM]	nt	?	-27%	nt
55	CC[C@H](C)[C@@H](NC(=O)O[C@H]1C(=O)c2cc(OC)ccc2O[C@@H]1c1ccc(OC)c(Br)c1)C(=O)OC	-11%&-11%[14.2 µM]	nt	1%	0.2%	nt
56	Cc1cc(O)cc(O)c1C(=O)OC1(C)C(=O)C=C2C=C(/C=C/CO)OC=C2C1=O (stereo not given)	?	nt	0%	2.6%	nt
57	C=C(Nc1ccc(OC)cc1)C(=O)OC	4%&4%[14.2 µM]	nt	-15%	0.8%	nt
58	COC(=O)CC1c2ccccc2C(Cc2ccc3c(c2)OCO3)=C(C)N1C(=O)OC (stereo not given)	?	nt	15%	-4.5%	nt
59	O[C@H](CN1CCN(c2cccc(Cl)c2)CC1)C(c1ccccc1)c1ccccc1	22%&22%	nt	10%	-0.7%	nt
60	O=C(/C=C/c1cccc([N+](=O)[O-])c1)c1ccccc1	-27%[14.2 µM]	nt	4%	-0.9%	nt
61	C=CCOC(=O)NC(c1ccc(F)c(F)c1)C(C(=O)COC)C(=O)OC (stereo not given)	?	nt	-1%&-2%	2.5%&1.1%	nt
62	COC(=O)C/C=C/[C@@H](C)[C@H](NC(=O)OCC(Cl)(Cl)Cl)c1ccc2ccccc2c1	-18%[14.2 µM]	nt	-4%	-1.3%	nt
63	CC[C@H](NC(C)C)[C@H](O)c1ccc(O)c(O)c1	-23%&-23%	nt	-4%	-1.1%	nt
64	COC(=O)CC1c2ccccc2C=C(C2CC2)N1C(=O)OC (stereo not given)	?	nt	11%	-1.7%	nt
65	C=C[C@H](C)[C@](C)(O)c1ccccc1	19%&19%[14.2 µM]	nt	-2%	5.9%	nt
66	COC(=O)N[C@@H](c1cccc(C)c1)C(C(C)=O)C(=O)OC (stereo not given in full)	-1%&-1%[14.2 µM]	nt	0%	1.6%	nt
67	COC(=O)N[C@H](C[N+](=O)[O-])C(C)(C)C	5%&5%[14.2 µM]	nt	3%	-4.4%	nt
68	C=C[C@@H](C)[C@](C)(O)c1ccccc1	7%&7%[14.2 µM]	nt	-15%	3.3%	nt
69	COc1ccc2c(c1)O[C@@H](c1cccc(C(F)(F)F)c1)[C@H](OC(=O)Nc1cc(OC)c(OC)c(OC)c1)C2=O	2%&2%[14.2 µM]	nt	-5%	-1.7%	nt
70	CC(C)(C)Nc1oc(-c2ccccc2)nc1-c1ccc(C(F)(F)F)cc1	-17%&-17%[14.2 µM]	nt	-10%	3.9%	nt
71	CC(CCC#N)[N+](=O)[O-] (stereo not given)	?	nt	5%	-0.7%	nt
72	COC(=O)N[C@@H](/C=C/c1ccccc1)/C(C(=O)OC)=C(\C)NCc1ccccc1	-22%[14.2 µM]	nt	-18%	7.7%	nt

Bioassay records as filed in PubChem.
